High-throughput results as filed in PubChem BioAssay.
Bead autofluor = flagged as autofluorescent in microsphere protease counterscreen. compound autofluorescence counterscreen, microsphere flow cytometry; stronger effect = higher value. fluorescence intensity (concentration not given with the values). actives 3.1% (n = 360,000). AID 624483;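 active means at least 3 SD above the mean of all compounds, about 16000 in these data; inconclusive means too few beads counted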;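 further: 100 nL of 1 mM stock went into each well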
BJeLR viability = BJeLR cell viability loss | actives 0.17% (n = 300,000) | inhibition, % (test concentration not listed) | BJeLR (HRASV12) viability, CellTiter-Glo ATP luminescence, 48 h; reference of the scale not given here;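 active means replicate mean above 50%; inconclusive means above 50% but judged a plate artefact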;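 further: 50 nL library stock added to about 25 µL; numbers are from one replicate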
Mtb hypoxia rep = inhibitors of hypoxia-regulated fluorescent reporter in Mycobacterium tuberculosis; M. tuberculosis hypoxia-regulated fluorescent reporter, fluorescence; actives 0.1% (n = 300,000); fluorescence inhibition, % (concentration not given with the values);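 active means 35 to 45% if threefold the growth effect, above 45% if 1.5-fold the growth effect; inactive means the rest, general growth blockers included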;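 further: wells of about 50 µL received 100 nL stock; 0% = vehicle wells and 100% = reference inhibitor wells; whole bacteria with a GFP reporter of the hypoxia response; strong numbers were not always called active; many hits fall short of the cut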
ugtP null kill = compounds lethal to S. aureus RN4220 ugtP deletion mutant; OD600 growth, 16 h; some inactives read as strong as hits; growth inhibition, % (no concentration beside the values); actives 0.54% (n = 330,000);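 active means z-score under -3 and OD600 up to 0.15 on both plates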;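 further: plate controls were untreated wells for no effect and antibiotic for full effect; wells of about 80 µL received 100 nL stock; the first replicate is given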
Sa RN4220 lethal = S. aureus RN4220 growth inhibition | OD600, 16 h | actives 0.33% (n = 330,000) | inhibition, % (no concentration beside the values) | AID 1259311;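 active means z-score of -3 or lower and OD600 up to 0.18 on both plates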;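 further: plate controls were untreated cells for no effect and reference antibiotic for full effect; stock transfer was 100 nL into about 80 µL; one replicate is shown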
PrP UTR inh = inhibition of PrP 5' UTR reporter expression; cell-based PrP 5' UTR mRNA reporter, plate reader; inhibition, % (no concentration beside the values); actives 0.35% (n = 340,000); AID 488862;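 active means every replicate at 50% or more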;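 further: 0 = median of the neutral control wells; tested in H4 reporter cells; numbers are from one replicate; inactives centre near -14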
Mtb hypoxia rep growth = recorded beside Mtb hypoxia rep, whose call it bears; growth inhibition, %; measured here: M. tuberculosis growth (absorbance);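 0% = vehicle and 100% = reference antibiotic; read after six days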
Numbers without * were called inactive; ? = inconclusive; nt = not tested or not shown.

1) O=C(CCNS(=O)(=O)c1ccc(Cl)cc1)N1CCOCC1
2) COc1ccc(C(=O)C2CCCN(Cc3cn[nH]c3-c3ccc(F)cc3)C2)cc1OC (stereo not drawn)
3) Cc1ccc(S(=O)(=O)NCCCCCC(=O)Nc2ccccc2)cc1
4) NC(=O)C1CCN(C(=O)COc2ccc3ccccc3c2Br)CC1
5) CC(=O)Nc1nnc(-c2c(-c3ccccc3Cl)noc2C)o1
6) COc1ccc(NC(=O)N2CCC(C(=O)c3ccc(F)cc3)CC2)cc1
7) O=c1nc2sc3ccccc3n2c(=O)n1-c1ccc(Cl)cc1
8) NNC(=O)CNC(=O)c1ccc(F)cc1
screen / no. | 1 | 2 | 3 | 4 | 5 | 6 | 7 | 8
Bead autofluor | 6212 | 2265 | 2059 | 4160 | 4544 | 3566 | 3826 | 2512
BJeLR viability | 1 | 0 | 3 | -1 | 2 | 0 | -1 | 4
Mtb hypoxia rep | 8 | 11 | 10 | 8 | 6 | 4 | 6 | 5
Mtb hypoxia rep growth | -8 | 0 | 6 | 10 | 9 | 10 | 12 | 15
ugtP null kill | 8 | 9 | 2 | 0 | 3 | -6 | -6 | -3
Sa RN4220 lethal | 2.9 | 7.9 | 3.8 | 1.9 | 2.5 | -0.7 | -21 | -2.7
PrP UTR inh | -10 | -32 | -21 | -5 | -11 | 2 | -45 | -33

9) COc1cccc(N2CCN(c3ncccn3)CC2)c1
10) CCOC(=O)CC1(NC(=O)C2CCC(=O)N(Cc3ccccc3F)C2)CCCCC1 (stereo not drawn)
11) Cc1ccnc(NS(=O)(=O)c2ccc(NC(=O)c3ccc(C)o3)cc2)n1
12) CC(C)CC(=O)c1c[nH]c(C(=O)NCc2cccnc2)c1
13) O=C(Nc1cccc(Br)c1)c1cc2ccccc2o1
14) CC(=O)N1CCN(S(=O)(=O)c2cccc(C(=O)Nc3ccc4c(c3)OCO4)c2)CC1
15) CN(c1ccc(C(=O)NCCSCc2c(F)cccc2Cl)cc1)S(C)(=O)=O
16) O=C(/C=C/c1ccc(OCCCF)cc1)NCc1ccc(Cl)c(Cl)c1
screen / no. | 9 | 10 | 11 | 12 | 13 | 14 | 15 | 16
Bead autofluor | 9764 | 4434 | 4678 | 4558 | 12533 | 3096 | 4167 | 4106
BJeLR viability | -6 | 4 | -6 | -8 | 4 | 0 | 8 | -8
Mtb hypoxia rep | 2 | 3 | nt | 1 | 12 | 7 | -1 | nt
Mtb hypoxia rep growth | 8 | -12 | nt | 12 | 2 | 2 | 1 | nt
ugtP null kill | 3 | 10 | 2 | -2 | -9 | 16 | 4 | -8
Sa RN4220 lethal | 6.2 | 4.5 | -1.5 | -0.3 | 5.0 | 6.7 | 3.2 | 0.7
PrP UTR inh | -30 | 0 | -20 | -2 | -94 | -4 | 1 | -15

17) CCN(CC)CCNC(=O)CCc1c(C)nc2c(c(C)nn2-c2ccc(C)c(C)c2)c1C
18) Cc1ccc(C(=O)Nc2ccc(Cl)cc2C(=O)c2ccccc2)cc1
19) COC(=O)[C@H](C)NC(=O)NCc1ccco1
20) CCCS(=O)(=O)N1CCCC(C(=O)NCCN(C)Cc2ccccc2)C1 (stereo not drawn)
21) CCOC(=O)C1=C(C)Nc2nc3ccccc3n2C1c1cccs1 (stereo not drawn)
22) CC(C)(C)C(=O)CSc1ccc(S(=O)(=O)N2CCCC2)cn1
23) COc1ccc(Cl)cc1NC1=NCC(C)S1 (stereo not drawn)
24) CCN(CC)S(=O)(=O)c1ccc(N/N=C/c2ccc(OC)c(OC)c2OC)nc1
screen / no. | 17 | 18 | 19 | 20 | 21 | 22 | 23 | 24
Bead autofluor | 3938 | 23597* | 20251* | 2847 | 2554 | 4561 | 9689 | 2486
BJeLR viability | 4 | nt | -7 | 5 | -4 | nt | -4 | 6
Mtb hypoxia rep | 10 | 15 | 5 | -4 | 14 | 11 | -3 | nt
Mtb hypoxia rep growth | 3 | 7 | 6 | 12 | 1 | 4 | -5 | nt
ugtP null kill | -7 | 92* | 9 | -9 | -1 | 3 | 0 | nt
Sa RN4220 lethal | -0.4 | -4.4 | 6.3 | -1.8 | 5.1 | 9.1 | 6.9 | nt
PrP UTR inh | -9 | 6 | -26 | 6 | -11 | nt | -24 | 3

25) COc1cccc(CNC(=O)C(=O)NCCC2CCCCN2S(=O)(=O)c2cccs2)c1 (stereo not drawn)
26) CN(C)S(=O)(=O)c1cccc(NC(=O)COC(=O)CCOc2ccccc2)c1
27) Cc1cc(C)n(CCC(=O)NN=Cc2cccc([N+](=O)[O-])c2)n1
28) CCCNC(=O)CSc1nc2ccccc2c(=O)n1CCC
29) O=C(C1CC1)N1CCc2cc(Br)cc(S(=O)(=O)NCCN3CCOCC3)c21
30) CCOc1ccccc1NC(=O)CCS(=O)(=O)c1ccc2c(c1)CCN2C(C)=O
31) Clc1ccc(-c2nc(C3CCCCC3)no2)cc1
32) CC(=O)/C=C1/SC(CC(=O)O)C(=O)N1c1ccccc1 (stereo not drawn)
screen / no. | 25 | 26 | 27 | 28 | 29 | 30 | 31 | 32
Bead autofluor | nt | 4375 | nt | 3439 | 8822 | 5554 | 4807 | 17699*
BJeLR viability | -3 | 4 | nt | -4 | -8 | -4 | 0 | -7
Mtb hypoxia rep | 4 | 14 | 7 | 12 | 5 | -3 | 8 | -3
Mtb hypoxia rep growth | 3 | 13 | -3 | 3 | 6 | 0 | 2 | -1
ugtP null kill | 1 | 3 | 4 | -3 | -6 | 4 | 23 | 1
Sa RN4220 lethal | -0.2 | 3.4 | 0.4 | 4.0 | 4.1 | 2.2 | 7.3 | 4.0
PrP UTR inh | -16 | -7 | nt | -28 | -27 | -21 | -70 | -11

Values by screen from the list.
Nos. 25 to 32 in ugtP null kill read 1, 3, 4, -3, -6, 4, 23, 1
Nos. 25 to 32 in Mtb hypoxia rep growth read 3, 13, -3, 3, 6, 0, 2, -1
Nos. 25 to 32 in Sa RN4220 lethal read -0.2, 3.4, 0.4, 4.0, 4.1, 2.2, 7.3, 4.0

Carrying on:
33) O=C(Nc1ccc(NC(=O)C2CC2)cc1)c1ccco1
34) CCCOc1ccc(C(NC(=O)CC(C)C)NC(=O)CC(C)C)cc1OC
35) CCCSC1=C(C#N)C(c2cccs2)CC(=O)N1 (stereo not drawn)
36) Cc1ccc(SC(C)C(=O)NC2CC2)cc1 (stereo not drawn)
37) CSCC[C@H](NC(=O)c1ccc(OCC2CCCO2)cc1)c1nc2ccccc2[nH]1 (stereo partly drawn)
38) CC(C)C(c1nnnn1CCc1ccccc1)N1CCN(C(=O)c2ccco2)CC1 (stereo not drawn)
39) CN(Cc1ccccc1)C(=O)c1[nH]cnc1C(=O)N[C@@H](Cc1ccccc1)C(=O)OC(C)(C)C
40) O=C(COC(=O)Cc1ccsc1)Nc1ccc(Br)cc1F
screen / no. | 33 | 34 | 35 | 36 | 37 | 38 | 39 | 40
Bead autofluor | 3727 | 2019 | 5583 | 6242 | 3937 | 3072 | 3886 | 8555
BJeLR viability | -4 | -4 | -16 | -10 | nt | -1 | 0 | nt
Mtb hypoxia rep | 5 | -1 | -6 | 7 | 7 | 0 | nt | -3
Mtb hypoxia rep growth | 11 | 1 | -13 | 7 | 2 | -1 | nt | 1
ugtP null kill | 0 | 2 | -5 | 7 | -10 | 2 | nt | 5
Sa RN4220 lethal | -0.8 | 4.2 | -5.5 | 2.5 | 25 | 2.4 | nt | 3.3
PrP UTR inh | -35 | 3 | -18 | -14 | -18 | -23 | -11 | -45

Complete entries, quoted from the list. Screens in order: Bead autofluor | BJeLR viability | Mtb hypoxia rep | Mtb hypoxia rep growth | ugtP null kill | Sa RN4220 lethal | PrP UTR inh
`CCCSC1=C(C#N)C(c2cccs2)CC(=O)N1` (stereo not drawn) is entered as 5583 | -16 | -6 | -13 | -5 | -5.5 | -18
`CN(Cc1ccccc1)C(=O)c1[nH]cnc1C(=O)N[C@@H](Cc1ccccc1)C(=O)OC(C)(C)C` is entered as 3886 | 0 | nt | nt | nt | nt | -11
`CSCC[C@H](NC(=O)c1ccc(OCC2CCCO2)cc1)c1nc2ccccc2[nH]1` (stereo partly drawn) is entered as 3937 | nt | 7 | 2 | -10 | 25 | -18
`Cc1ccc(SC(C)C(=O)NC2CC2)cc1` (stereo not drawn) is entered as 6242 | -10 | 7 | 7 | 7 | 2.5 | -14

Next section:
41) Cc1ccc(-c2csc(N=C(N)N)n2)c(C)c1
42) O=c1c2ccccc2c(C=Nc2ccc(O)cc2)c(O)n1Cc1ccccc1
43) CCOc1ccc(NC(=O)CNC(=O)c2cn(-c3ccccc3OC)c(=O)c3ccccc23)cc1
44) O=C(NN=Cc1ccc2c(c1)OCO2)c1cccc2ccccc12
45) CC1(C)CC(O)C(CCC(O)c2ccccc2)C(C)(C)N1 (stereo not drawn)
46) COc1ccc(S(N)(=O)=O)cc1C(=O)OCC(=O)Nc1ncc(Cl)c(C)c1Cl
47) O=C(c1ccc(Cl)cc1)C1CCCN(Cc2cccn2-c2cccnc2)C1 (stereo not drawn)
48) CCOC(CNC(=O)c1ccc2c(c1)ncn2-c1ccccc1OC)OCC
screen / no. | 41 | 42 | 43 | 44 | 45 | 46 | 47 | 48
Bead autofluor | ? | 4713 | 9802 | nt | 2525 | 3584 | 4478 | 4739
BJeLR viability | -10 | -2 | -8 | nt | 0 | nt | 0 | 4
Mtb hypoxia rep | -1 | 8 | 11 | 4 | 7 | -9 | 1 | 0
Mtb hypoxia rep growth | 4 | 5 | 16 | 12 | 4 | 2 | -10 | 8
ugtP null kill | -8 | -5 | -1 | 0 | -2 | 3 | 3 | 2
Sa RN4220 lethal | -15 | 1.4 | 3.2 | -0.3 | 2.9 | 0.2 | 3.4 | 1.8
PrP UTR inh | nt | -38 | -10 | nt | -5 | -8 | -23 | -4

49) COc1cc(C(=O)Nc2ccc3c(c2)OCO3)c([N+](=O)[O-])cc1OC
50) CCCCN(C(=O)COC(=O)c1ccc(C)s1)c1c(N)n(CCC)c(=O)[nH]c1=O
51) COc1ccccc1NC(=O)NNC(=O)c1ccc2ccccc2c1
52) OCCCn1c(C2CCCN2c2nc(-c3ccc(Cl)cc3)cs2)nc2cc(Cl)c(N3CCCCC3)cc21 (stereo not drawn)
53) CC(C)[C@@H](N)C(=O)NC[C@H]1O[C@@H](n2cnc3c(N)ncnc32)[C@H](O)[C@@H]1O
54) COc1ccc(/C=C/C(=O)c2ccc(Cl)s2)cc1O
55) CC1CCN(C(=O)c2cccc(S(=O)(=O)N3CCCCC3)c2)CC1
56) CCCCc1ccc(NC(=O)c2ccc(NS(C)(=O)=O)cc2)cc1
screen / no. | 49 | 50 | 51 | 52 | 53 | 54 | 55 | 56
Bead autofluor | 4243 | 4165 | 5517 | 4070 | 3205 | 9061 | 10966 | 4945
BJeLR viability | 2 | nt | 12 | -8 | nt | -12 | 2 | 4
Mtb hypoxia rep | -2 | 9 | -4 | 4 | -1 | 23 | -1 | -18
Mtb hypoxia rep growth | 1 | 8 | 6 | 9 | 1 | 13 | 1 | -2
ugtP null kill | 5 | -1 | -2 | -21 | 6 | -1 | 1 | 2
Sa RN4220 lethal | 0.5 | -1.5 | -3.2 | -3.7 | -1.2 | 2.3 | 1.3 | 1.3
PrP UTR inh | -2 | -5 | -10 | -4 | -20 | -49 | nt | -24

57) Clc1ccc(-c2ccnc(-n3cccc3)n2)s1
58) Cc1nn(C)c(C)c1N1C(=O)c2cccc3c(Br)ccc(c23)C1=O
59) c1cncc(-c2nnc3n2CCC3)c1
60) Cc1[nH]c2ccccc2c1C(O)CN1CCC2(CC1)OCCO2 (stereo not drawn)
61) Cc1nnc(N/N=C/c2ccccc2F)n1N
62) Cc1ccc(NC(=O)c2ccncc2)cc1[N+](=O)[O-]
63) O=C1C(=Cc2cccs2)C(=O)c2ccccc21
64) O=c1oc(Nc2cccc(Cl)c2)nc2ccccc12
65) CCOc1ccc(N=C2NC(=O)C(CC(=O)Nc3ccccc3)S2)cc1 (stereo not drawn)
screen / no. | 57 | 58 | 59 | 60 | 61 | 62 | 63 | 64 | 65
Bead autofluor | 4530 | 4821 | 5825 | 4335 | 3420 | 2417 | 1887 | 5358 | 4408
BJeLR viability | -3 | nt | -2 | 7 | 10 | 7 | -11 | 4 | -6
Mtb hypoxia rep | 13 | -9 | 5 | -3 | nt | -5 | 4 | 10 | 2
Mtb hypoxia rep growth | -2 | 9 | -2 | 2 | nt | 2 | 3 | 9 | 2
ugtP null kill | -3 | -6 | 12 | 2 | nt | 3 | -1 | 10 | 3
Sa RN4220 lethal | 0.5 | 1.9 | 2.9 | 3.9 | nt | -1.0 | 5.0 | 3.0 | 4.4
PrP UTR inh | 3 | -18 | -88 | -23 | -16 | -13 | -9 | -56 | -3
